rRNA inh HTS: inhibits bacterial ribosomal RNA function over humanized ribosomes; GFP signal change (wild-type ribosome), % (test concentration not listed); 350,000 tested, 1.6% active; E. coli WT GFP vs humanized-ribosome RFP mutants, fluorescence, 24 h; active compounds read low; DMSO median 0, no signal -100; AID 720706;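 active = significant combined selectivity score with lowered wild-type GFP, culture density cut under 30%, mutant RFP and density less affected; inactive = any of these conditions unmet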; also: one replicate is shown; some compounds called inactive have numbers as strong as hits
AF4-AF9 inh: inhibitors of human MLL-AF4/AF9 interaction; AlphaScreen, biotin-AF4 peptide binding to FLAG-AF9; inhibition, % at 10 µM; 350,000 tested, 0.47% active; P42568; AID 651704;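 active = every replicate reaching a set inhibition limit, whatever the replicate mean, cut at about 25% in these data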;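 also: 0% = plate neutral control median and 100% = total signal loss; the record names both 10 and 1 µM as test concentration; the first replicate is given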
Target sequence (P42568 whole entry, looked up): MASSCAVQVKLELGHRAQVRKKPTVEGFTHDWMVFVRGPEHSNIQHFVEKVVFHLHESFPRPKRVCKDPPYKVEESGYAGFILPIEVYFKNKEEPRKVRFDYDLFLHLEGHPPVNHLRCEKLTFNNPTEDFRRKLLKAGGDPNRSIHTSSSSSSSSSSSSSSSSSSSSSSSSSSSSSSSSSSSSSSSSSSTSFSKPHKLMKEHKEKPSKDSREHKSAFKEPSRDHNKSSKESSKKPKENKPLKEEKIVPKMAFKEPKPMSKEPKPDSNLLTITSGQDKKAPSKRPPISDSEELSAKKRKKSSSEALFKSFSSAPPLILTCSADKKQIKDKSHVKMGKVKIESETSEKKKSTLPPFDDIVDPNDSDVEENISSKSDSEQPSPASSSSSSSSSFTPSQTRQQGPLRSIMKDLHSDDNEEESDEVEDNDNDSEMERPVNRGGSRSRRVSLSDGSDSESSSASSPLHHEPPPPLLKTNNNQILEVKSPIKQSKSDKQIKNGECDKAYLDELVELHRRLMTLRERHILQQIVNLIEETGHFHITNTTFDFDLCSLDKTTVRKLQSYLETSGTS
rRNA inh HTS OD600: second read-out of rRNA inh HTS, no call of its own (marks repeat the call); OD600 change, %; measured here: OD600 growth;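 optical density of the mix in the first replicate; 0 = DMSO median and -100 = no signal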
rRNA inh HTS RFP: recorded beside rRNA inh HTS, whose call it bears; RFP signal change, %; measured here: RFP humanized mutant strains;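 first replicate; 0 = DMSO median and -100 = no signal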
Active calls of the source: *; & = joins results of further samples. Some of the compounds tested; the hit share may differ from the screen's.

Structure | AF4-AF9 inh | rRNA inh HTS OD600 | rRNA inh HTS RFP | rRNA inh HTS
Cc1oc(-c2cccs2)cc1C(=O)N1CCC(C)(C(=O)NS(=O)(=O)C2CC2)C1 (configuration not stated) | -1.5 | 5 | -1.8 | 6
CCc1sc(N2[C@H](C#N)[C@H](c3ccccc3-c3ccc(F)cc3)[C@@H]2CO)nc1C | -0.1 | -4 | -0.3 | 2
COc1cccc(NC(=O)N[C@@H]2CC[C@H](CC(=O)N3CCN(C)CC3)O[C@H]2CO)c1 | -1.2 | 8 | -3.0 | -1
O=C(C[C@@H]1C[C@H]2c3cc(NC(=O)Nc4ccc(C(F)(F)F)cc4)ccc3O[C@H]2[C@H](CO)O1)NCCc1ccccc1 | 4.1 | -15 | 19 | -12
CC1(C(=O)NS(=O)(=O)c2cccc(F)c2)CCN1C(=O)CCC1CCCC1 (configuration not stated) | -0.1 | 25 | -1.7 | 13
C[C@H]1CN([C@@H](C)CO)C(=O)c2cc(NS(=O)(=O)c3ccc(Cl)cc3)ccc2O[C@@H]1CN(C)S(=O)(=O)c1ccc(F)cc1 | -0.3 | -5 | 3.5 | -4
C[C@@H]1CN([C@@H](C)CO)C(=O)c2cccc(NC(=O)C3CCOCC3)c2O[C@@H]1CN(C)Cc1ccc(C(=O)O)cc1 | -0.9 | -3 | -2.3 | 3
C[C@@H]1CN([C@@H](C)CO)S(=O)(=O)c2ccc(-c3ccc(C(=O)N(C)C)cc3)cc2O[C@@H]1CN(C)C(=O)Cc1ccccn1 | -10 | -4 | -1.7 | -1
COc1ccc2c3c(n(C)c2c1)[C@@H](CO)N(C(=O)c1ccc(F)cc1)CC31CCN(C(=O)Nc2ccc(F)cc2)CC1 | 2.2 | -2 | 3.7 | -5
O=C(Cc1ccccn1)NCC[C@@H]1CC[C@H](NC(=O)Nc2ccccc2)[C@@H](CO)O1 | 2.6 | 10 | 0.7 | 4
COc1ccc(Cn2cc(CN3CC(N4CCN(Cc5ccccc5F)CC4)CS3(=O)=O)nn2)cc1 (configuration not stated) | -2.1 | 6 | 0.6 | -1
C=C(C)C(COc1c2occc2cc2ccc(=O)oc12)OC(C)(C)C(O)COc1c2occc2cc2ccc(=O)oc12 (configuration not stated) | -3.3 | 7 | -1.8 | -7
COc1ccc(C#Cc2ccc([C@@H]3[C@H](CO)N4C(=O)CN(C(=O)c5cccnc5)C[C@@H]34)cc2)cc1 | -3.3 | 1 | 6.3 | 2
C[C@H](CO)N1C[C@H](C)[C@@H](CN(C)S(=O)(=O)c2cccs2)Oc2c(NC(=O)c3ccc(-c4nccs4)cc3)cccc2C1=O | 0.7 | -15 | -0.1 | -7
Cc1noc(C)c1S(=O)(=O)Nc1cccc2c1O[C@@H](CN(C)C(=O)NC1CCCCC1)[C@@H](C)CN([C@@H](C)CO)C2=O | -1.6 | 6 | 2.5 | 3
C[C@H]1CN([C@@H](C)CO)C(=O)c2cc(-c3ccccc3F)cnc2O[C@H]1CN(C)C(=O)C1CC1 | 0.5 | -8 | 2.4 | 0
CNC(=O)C[C@@H]1CC[C@@H]2[C@H](COC[C@H](O)CN2Cc2ccncc2)O1 | -2.5 | 23 | 0.1 | 7
C[C@H]1CCCCO[C@H](CN(C)C(=O)Nc2cccc3ccccc23)[C@@H](C)CN([C@@H](C)CO)C(=O)c2cc(NC(=O)c3ccccc3)ccc2O1 | 0.6 | 6 | -0.8 | 1
C[C@@H]1CN([C@H](C)CO)C(=O)c2cc(NC(=O)Nc3ccc(F)cc3)ccc2O[C@@H]1CN(C)S(=O)(=O)c1ccc(Cl)cc1 | 2.2 | -3 | 1.4 | 0
O=C(C1CCC1)N1C[C@H]2[C@@H](c3ccccc31)[C@@H](CO)N2Cc1ccccc1 | 0.2 | -21 | -1.6 | -11
CO[C@@H]1CN(C)C(=O)c2ccc(NC(=O)c3cc(C)on3)cc2OC[C@H](C)N(C)C[C@@H]1C | -0.9 | 1 | 0.4 | 0
C[C@H](CO)N1C[C@H](C)[C@H](CN(C)S(=O)(=O)c2ccc(F)cc2)Oc2ccc(NC(=O)CCCCCC(=O)Nc3ccccc3N)cc2C1=O | -1.3 | -1 | 2.9 | -1
C[C@H](CO)N1C[C@H](C)[C@H](CN(C)C(=O)Nc2ccc(C(F)(F)F)cc2)Oc2ccc(NC(=O)NC3CCCCC3)cc2C1=O | -1.1 | -8 | -0.9 | -4
CCCNC(=O)Nc1ccc2c(c1)OC[C@@H](C)N(C(=O)C1CCCCC1)C[C@H](C)[C@@H](OC)CN(C)C2=O | -2.0 | 1 | -0.1 | -1
CN1c2ccc(-c3cccc(F)c3)cc2[C@H]2[C@H](CCN2C(=O)C2CC2)[C@@H]1CO | -13 | -74 | -7.7 | -55

More structures follow:
Structure | AF4-AF9 inh | rRNA inh HTS OD600 | rRNA inh HTS RFP | rRNA inh HTS
C[C@@H]1CN([C@H](C)CO)C(=O)c2cccc(N(C)C)c2O[C@H]1CN(C)S(=O)(=O)c1ccccc1 | -0.8 | -15 | -1.3 | -7
CCN(C(=O)COC(=O)c1cc(=O)[nH]c2ccccc12)c1c(N)n(Cc2ccccc2)c(=O)[nH]c1=O | -11 | 9 | -0.5 | 9
C[C@@H]1CN([C@H](C)CO)C(=O)c2cc(C#C[C@@H](C)O)cnc2O[C@H]1CN(C)Cc1ccccn1 | 0.7 | 5 | 1.0 | 6
COc1ccc(S(=O)(=O)N2CCN(c3ccccc3)CC2)cc1OC | -1.5 | 1 | 0.1 | -11
O=C(NCc1ccncc1)[C@H]1[C@H](CO)[C@H]2Cn3c(ccc(-c4cccnc4)c3=O)[C@H]2N1C(=O)C1CC1 | -18 | -7 | -2.1 | 4
C/C=C/c1ccc(C2[C@@H]3CN(S(=O)(=O)c4ccc(F)cc4)C[C@H]2N3)cc1 (some centres not stated) | -0.2 | -36 | 19 | -2
O=C(c1cccc(F)c1)N1CC(=O)N2[C@H](CO)[C@@H](c3ccc(C#Cc4ccc(F)cc4)cc3)[C@@H]2C1 | -1.2 | 21 | 6.5 | 6
CNC[C@H]1OCc2cnnn2CCCC(=O)N([C@H](C)CO)C[C@@H]1C | -2.3&-3.3 | 6&8 | 0.4&0.8 | 5&5
C[C@@H]1CN([C@@H](C)CO)C(=O)c2cc(NC(=O)Nc3ccc(C(F)(F)F)cc3)ccc2O[C@H]1CN(C)S(=O)(=O)c1ccc(F)cc1 | 0.6 | 5 | -2.6 | 1
C[C@@H]1CN([C@@H](C)CO)C(=O)c2cccc(NC(=O)Nc3ccc(F)cc3)c2O[C@H]1CN(C)S(=O)(=O)c1ccccc1 | -1.1 | 1 | 1.5 | 0
COc1ccc(NC(=O)N(C)C[C@@H]2OCCCC[C@@H](C)Oc3ccc(NS(=O)(=O)c4ccc(Cl)cc4)cc3C(=O)N([C@@H](C)CO)C[C@@H]2C)cc1 | 4.4 | 6 | -2.5 | 0
Cc1noc(C)c1NC(=O)Nc1ccc2c(c1)C(=O)N([C@@H](C)CO)C[C@@H](C)[C@@H](CN(C)C(=O)NC1CCCCC1)OCCCC[C@H](C)O2 | -0.6 | -3 | -1.7 | -2
O=C(Nc1ccc(C(F)(F)F)cc1)Nc1ccc2c(c1)[C@H]1C[C@@H](CC(=O)N3CCc4ccccc4C3)O[C@@H](CO)[C@H]1O2 | -12 | 8 | 1.1 | 3
C[C@H]1CCCCO[C@@H](CN(C)Cc2ccccc2)[C@@H](C)CN([C@@H](C)CO)C(=O)c2cc(NC(=O)Nc3ccc(F)cc3)ccc2O1 | 9.8 | -47 | 25 | -10
Cc1ccc(S(=O)(=O)N2CCSCCSCCSCCSCC2)cc1 | 3.6 | 6 | 1.2 | 7
C[C@@H]1CN([C@H](C)CO)C(=O)c2cc(C#CC3CCCCC3)cnc2O[C@@H]1CN(C)Cc1ccncc1 | 7.9 | -15 | 10 | 2
CO[C@@H]1CN(C)C(=O)c2cc(NC(=O)Nc3cc(F)ccc3F)ccc2OC[C@@H](C)N(C(=O)c2ccccn2)C[C@@H]1C | 0.5 | -1 | -1.3 | 0
C[C@H](NC(=O)C[C@@H]1C[C@H]2c3cc(NC(=O)CC4CC4)ccc3O[C@H]2[C@H](CO)O1)c1ccccc1 | -1.8 | 7 | 2.1 | -1
CO[C@H]1CN(C)C(=O)c2cc(NC(C)=O)ccc2OC[C@@H](C)N(Cc2cc(F)ccc2F)C[C@H]1C | 1.9 | -4 | -2.3 | -1
CO[C@@H]1CN(C)C(=O)c2ccc(NC(=O)C3CC3)cc2OC[C@@H](C)N(CC2CCOCC2)C[C@H]1C | -0.9 | -1 | 0.2 | -2
CCC(=O)N(C)C[C@H]1Oc2ncc(-c3ccc(C(=O)N(C)C)cc3)cc2C(=O)N([C@@H](C)CO)C[C@@H]1C | -0.5 | 3 | -1.8 | 2
CCCC(=O)N1CCC2(CC1)CN(C(=O)c1ccc(F)cc1)[C@H](CO)c1[nH]c3cc(OC)ccc3c12 | -2.6 | -11 | 1.0 | 1
O=C(N[C@@H]1CC[C@H](CCNC(=O)C2CCCCC2)O[C@H]1CO)c1ccncc1 | 0.5 | 1 | -0.1 | 0
OC(c1cccnc1)c1nc(-c2cccc(F)c2)cs1 (configuration not stated) | -2.1 | -9 | -1.6 | 2
O=C(C[C@H]1CC[C@@H]2[C@H](COC[C@H](O)CN2S(=O)(=O)c2ccccc2)O1)NCC1CCCCC1 | 16 | 1 | 3.7 | -3

Going on with the list.
Structure | AF4-AF9 inh | rRNA inh HTS OD600 | rRNA inh HTS RFP | rRNA inh HTS
O=C(C[C@H]1C[C@H]2c3cc(NC(=O)NC4CCCC4)ccc3O[C@H]2[C@H](CO)O1)NCc1ccc(Oc2ccccc2)cc1 | 0.2 | 2 | -0.7 | 0
C[C@@H]1CN([C@@H](C)CO)C(=O)c2c(c3ccccc3n2C)-c2ccccc2CO[C@@H]1CN(C)C(=O)Nc1ccc(-c2ccccc2)cc1 | 0.0 | 7 | -0.5 | 4
COc1ccc(C(O)c2nc(-c3ccncc3)cs2)cc1 (configuration not stated) | 0.4 | 0 | -1.9 | 2
C[C@H](CO)N1C[C@H](C)[C@@H](CN(C)C)Oc2c(NC(=O)Nc3ccc(F)cc3)cccc2C1=O | -1.1 | 8 | 0.5 | 3
C[C@H]1CN([C@@H](C)CO)C(=O)Cc2cc(NC(=O)c3ccncc3)ccc2O[C@@H]1CN(C)Cc1ccc(C(F)(F)F)cc1 | 0.3 | 0 | -0.2 | -4
CN(Cc1ccccc1)C(=O)CN1C(=O)NC2(CCCc3sccc32)C1=O (configuration not stated) | 1.5 | -7 | 0.1 | -10
COc1ccccc1-c1ccc2c(c1)O[C@@H](CN(C)S(=O)(=O)c1ccc(F)cc1)[C@H](C)CN([C@@H](C)CO)S2(=O)=O | 0.8 | -3 | -2.4 | 1
O=C1CN(S(=O)(=O)Cc2ccccc2)C[C@@H]2[C@@H](c3ccc(C#CCC4CCCC4)cc3)[C@H](CO)N12 | 3.2 | 5 | 1.9 | 6
CC=Cc1ccc2n(c1=O)C[C@H]1[C@H](CO)[C@@H](C(=O)Nc3ccc(-c4ccccc4)cc3)[C@@H]2N1CC (mixture of isomers) | 12 | -32 | 15 | -7
CCC(=O)N1C[C@H](C)[C@@H](OC)CN(C)C(=O)c2cc(NC(=O)NC(C)C)ccc2OC[C@H]1C | -0.1 | 2 | -1.9 | 1
COCC(=O)N1CC[C@H]2[C@@H]1c1cc(-c3ccccc3)ccc1N(C)[C@H]2CO | 0.8 | -3 | -4.0 | -5
COC(=O)c1cccc(CC2(C)C(=O)Nc3cc(-c4ccccc4Cl)ccc32)c1 (configuration not stated) | -2.1 | 21 | -0.3 | 7
CCc1sc(N2[C@H](C#N)[C@H](c3ccccc3-c3ccccc3)[C@H]2CO)nc1C | -0.8 | -26 | 27 | 5
C#CCN1CCc2onc(-c3ccccc3OC)c2C1=O | 1.9 | 16 | -2.1 | 8

Profiles from above. Values in the order: AF4-AF9 inh	rRNA inh HTS OD600	rRNA inh HTS RFP	rRNA inh HTS
O=C1CN(S(=O)(=O)Cc2ccccc2)C[C@@H]2[C@@H](c3ccc(C#CCC4CCCC4)cc3)[C@H](CO)N12 across the screens: 3.2	5	1.9	6
C[C@@H]1CN([C@@H](C)CO)C(=O)c2c(c3ccccc3n2C)-c2ccccc2CO[C@@H]1CN(C)C(=O)Nc1ccc(-c2ccccc2)cc1 across the screens: 0.0	7	-0.5	4
CC=Cc1ccc2n(c1=O)C[C@H]1[C@H](CO)[C@@H](C(=O)Nc3ccc(-c4ccccc4)cc3)[C@@H]2N1CC (mixture of isomers) across the screens: 12	-32	15	-7
CCc1sc(N2[C@H](C#N)[C@H](c3ccccc3-c3ccccc3)[C@H]2CO)nc1C across the screens: -0.8	-26	27	5
C#CCN1CCc2onc(-c3ccccc3OC)c2C1=O across the screens: 1.9	16	-2.1	8

Screening results (PubChem BioAssay)
